rRNA inh HTS: reduced GFP signal of wild-type E. coli, primary screen, bacterial rRNA inhibitor project, GFP/RFP fluorescence, OD600, single point. AID 720706, 2013. E. coli WT GFP vs humanized-ribosome RFP mutants, 24 h; stronger effect = lower value; DMSO median 0, no signal -100. 350,000 tested, 1.6% active. GFP signal change (wild-type ribosome), % (no concentration beside the values);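 active = significant combined selectivity score with lowered wild-type GFP, culture density cut under 30%, mutant RFP and density less affected; inactive = any of these conditions unmet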; note: one replicate is shown; some compounds called inactive have numbers as strong as hits
MLL AF4-AF9 inh: inhibitors of AF4 peptide binding to AF9, primary screen, biochemical, AlphaScreen, biotin-AF4 peptide, FLAG-AF9, single point; inhibition, % at 10 µM; 350,000 tested, 0.47% active;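 active = every replicate reaching a set inhibition limit, whatever the replicate mean, cut at about 25% in these data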;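 note: 0% = plate neutral control median and 100% = total signal loss; the record names both 10 and 1 µM as test concentration; the first replicate is given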
Target sequence (P42568 whole entry, looked up): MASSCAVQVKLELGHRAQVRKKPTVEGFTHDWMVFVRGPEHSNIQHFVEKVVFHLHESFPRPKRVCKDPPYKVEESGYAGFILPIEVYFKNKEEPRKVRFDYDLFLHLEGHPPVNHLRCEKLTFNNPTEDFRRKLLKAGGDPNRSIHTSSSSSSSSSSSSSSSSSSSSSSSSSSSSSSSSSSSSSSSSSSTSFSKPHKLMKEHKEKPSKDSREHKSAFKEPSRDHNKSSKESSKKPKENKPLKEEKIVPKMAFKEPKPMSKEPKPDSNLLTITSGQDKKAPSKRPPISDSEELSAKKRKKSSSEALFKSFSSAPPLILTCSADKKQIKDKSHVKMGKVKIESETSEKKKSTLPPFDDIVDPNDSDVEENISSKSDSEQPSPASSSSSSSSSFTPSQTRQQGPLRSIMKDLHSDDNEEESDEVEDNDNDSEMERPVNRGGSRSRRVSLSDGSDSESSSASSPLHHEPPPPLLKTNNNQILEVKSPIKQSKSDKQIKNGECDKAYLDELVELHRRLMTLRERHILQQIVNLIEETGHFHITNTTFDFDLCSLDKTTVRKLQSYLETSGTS
FGF22 binding: binders of human FGF22 protein, primary screen, FGF22 synaptogenesis inhibitor project, biophysical, thermal shift, single point. Fibroblast growth factor 22 (Homo sapiens), Q9HCT0. recombinant FGF22 thermal shift, SYPRO orange fluorescence; percent of sucrose octasulfate shift, DMSO zero. calls only at 9.99 µM. 340,000 tested, 1.5% active. AID 651658, 2012;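 active = melting point raised past a set limit in the mean and every replicate; three in four hits are not shown here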
Target sequence (Q9HCT0 whole entry, looked up): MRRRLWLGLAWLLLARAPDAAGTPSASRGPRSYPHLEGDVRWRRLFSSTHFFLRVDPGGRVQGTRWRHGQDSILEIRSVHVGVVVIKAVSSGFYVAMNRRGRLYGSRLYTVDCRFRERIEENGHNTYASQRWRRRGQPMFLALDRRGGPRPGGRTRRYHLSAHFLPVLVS
rRNA inh HTS OD600: second read-out of rRNA inh HTS, no call of its own (marks repeat the call); OD600 change, %; measured here: OD600 growth;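 optical density of the mix in the first replicate; 0 = DMSO median and -100 = no signal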
rRNA inh HTS RFP: recorded beside rRNA inh HTS, whose call it bears; RFP signal change, %; measured here: RFP humanized mutant strains;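 first replicate; 0 = DMSO median and -100 = no signal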
Active calls of the source: *; i = inactive; + = active, no number; & = joins results of further samples.

SMILES	rRNA inh HTS	rRNA inh HTS OD600	rRNA inh HTS RFP	MLL AF4-AF9 inh	FGF22 binding
COCC(=O)N1CC2(C1)[C@@H](c1ccc(-c3ccc(F)cc3)cc1)[C@@H](CO)N2C(=O)C1CC1	2.0	-5.2	3.5	3.2	i
CC(=O)c1cccc(-c2cnc3c(NC=O)cc(-c4ccccc4F)cn23)c1	9.2	-4.3	8.5	0.0	i
O=C(C[C@@H]1C=C[C@H](NC(=O)C2CC2)[C@H](CO)O1)NC1CCC1	4.1	1.1	-0.5	-1.3	i
COc1ccc(NC(=O)N(C)C[C@@H]2OCCCC[C@@H](C)Oc3ccc(NS(=O)(=O)c4ccc(F)cc4)cc3C(=O)N([C@H](C)CO)C[C@H]2C)cc1	1.3	0.5	2.9	5.5	i
C[C@H](CO)N1C[C@H](C)[C@H](CN(C)C(=O)c2ccccc2)OCCCC[C@H](C)Oc2ccc(NC(=O)Nc3ccc(F)cc3)cc2C1=O	-2.5	-6.6	1.2	-15.0	i
C[C@@H]1CN([C@@H](C)CO)C(=O)c2cc(NC(=O)C3CCCCC3)ccc2O[C@@H]1CN(C)Cc1ccncc1	0.2	-10.9	-4.1	-0.1	i
Cn1cnc(S(=O)(=O)N2C[C@H](O)COC[C@@H]3O[C@@H](CC(=O)NCc4cccc(F)c4)CC[C@H]32)c1	2.8	19.5	-2.6	-2.5	i
CCC/C=C/c1ccc(CN2C(C)C(=O)N(Cc3cn(CCC4OCCO4)nn3)CCS2(=O)=O)cc1 (centres undefined)	9.6	3.4	9.0	3.3	i
COc1ccc(S(=O)(=O)N[C@@H]2CC[C@H](CCn3cc(-c4cccc(F)c4)nn3)O[C@H]2CO)cc1	-4.3	-1.7	3.4	0.2	i
O=C(Nc1ccccc1F)N1CCCCN2[C@@H](CO)[C@H](c3ccc(C#Cc4ccccc4)cc3)[C@@H]2C1	-55.1	-69.3	-5.8	3.8	i
COCC(=O)Nc1ccc2c(c1)C(=O)N(C)C[C@@H](OC)[C@@H](C)CN(CC1CC1)[C@@H](C)CO2	3.0	9.0	-1.0	1.0	i
COc1cccc(CNC(=S)Nc2ccc3c(c2)c(=O)n(C)n3C)c1	8.9	10.5	-0.8	-1.6	i
Cc1ccc(-c2ccc(CN3C(C(C)C)C(=O)N(Cc4cn(CCC5OCCO5)nn4)CCS3(=O)=O)cc2)c(C)c1 (centres undefined)	6.1	6.6	4.4	5.5	i
C[C@H]1CN([C@@H](C)CO)C(=O)c2cc(NC(=O)CCCN(C)C)ccc2O[C@@H]1CN(C)Cc1ccc(C(F)(F)F)cc1	-1.3	-2.1	-1.2	2.1	i
COc1ccc(NC(=O)N(C)C[C@@H]2Oc3ccc(NS(C)(=O)=O)cc3CC(=O)N([C@@H](C)CO)C[C@H]2C)cc1	5.6	19.8	-3.0	-3.3	+
CO[C@H]1CN(C)C(=O)c2ccc(NC(=O)c3cc(C)on3)cc2OC[C@@H](C)N(C(C)=O)C[C@@H]1C	-0.6	4.7	-1.9	-2.5	i
O=S(=O)(NCC1CCCO1)c1ccc(Cl)c2ccccc12 (centres undefined)	-5.5	-11.2	4.5	-2.8	i
C[C@H](CO)N1C[C@H](C)[C@H](CN(C)C(=O)Nc2cccc3ccccc23)Oc2c(NC(=O)NC3CCCCC3)cccc2C1=O	-2.5	-9.5	0.2	1.1	i
C[C@H]1CCCCO[C@@H](CN(C)Cc2ccc(C(=O)O)cc2)[C@@H](C)CN([C@@H](C)CO)C(=O)c2cc(NS(C)(=O)=O)ccc2O1	4.3	4.0	-0.3	-2.7	i
O=C(NC1CCCCC1)N(c1ccccc1)c1nnc(-c2cccc([N+](=O)[O-])c2)s1	4.3	7.5	0.4	7.5	i
N#Cc1cccc(NC(=O)c2cc(C3CCCCN3C(=O)c3ccccc3)on2)c1 (centres undefined)	-5.0	-1.9	3.2	-6.9	i
CCOC(=O)C1=CCN(S(=O)(=O)c2ccccc2Cl)C1c1ccccc1 (centres undefined)	-36.0	-62.2	-9.2	-1.4	i
CC(C)CC#Cc1ccc2c(c1)O[C@H](CN(C)C(=O)Nc1ccccc1)[C@H](C)CN([C@@H](C)CO)S2(=O)=O	-2.0	-3.1	-2.2	-15.0	i
CC(=O)N(C)C[C@@H]1Oc2cc(C#C[C@@H](C)O)ccc2S(=O)(=O)N([C@@H](C)CO)C[C@H]1C	3.8	-3.5	-2.4	0.4	i
COc1ccc(C(C(=O)NCc2ccccc2)n2c(-c3ccccn3)nc3ccccc32)cc1 (centres undefined)	-0.4	-13.7	-4.3	-2.0	i
CN(C)C(=O)C[C@@H]1C[C@@H]2c3cc(NS(=O)(=O)c4ccccc4)ccc3O[C@@H]2[C@H](CO)O1	5.8	4.7	-4.1	-0.9	i
CC(=O)N(C)C[C@@H]1Oc2ncc(-c3ccccc3C)cc2C(=O)N([C@@H](C)CO)C[C@@H]1C	2.4	13.2	-1.4	-2.2	i
CC(C)NC(=O)Nc1ccc2c(c1)C(=O)N([C@H](C)CO)C[C@@H](C)[C@H](CN(C)CC1CCCCC1)O2	2.2	0.2	-1.3	-1.3	i
CN(C)CCCN1c2ccccc2Sc2ccc3ccccc3c21	-62.3	-81.4	-11.0	30.5*	i
CCCNC(=O)N1CC2(C1)CN(C(=O)CC)[C@@H](CO)c1c2c2ccc(OC)cc2n1C	3.8	11.6	1.8	-0.7	i
C[C@@H]1CN([C@H](C)CO)C(=O)c2cc(C#CC3CCCCC3)cnc2O[C@@H]1CN(C)Cc1cccnc1	3.2	-14.6	5.5	3.6	i
Cc1ccccc1S(=O)(=O)N1C[C@@H](O)COC[C@H]2O[C@@H](CC(=O)N3CCN(C)CC3)CC[C@@H]21	5.0	5.1	-1.3	1.1	i
COc1ccccc1CNC(=O)C[C@H]1C[C@@H]2c3cc(N(C)C)ccc3O[C@@H]2[C@@H](CO)O1	-0.7	-5.1	3.8	6.9	i
C/C=C/c1ccc([C@@H]2[C@@H](C#N)N(S(=O)(=O)c3cccc(F)c3)[C@@H]2CO)cc1	-1.8	-26.4	21.5	2.5	i
Cc1cccc(-c2ccc([C@@H]3[C@@H](CO)N4C(=O)CN(C(=O)c5ccc6c(c5)OCO6)C[C@H]34)cc2)c1	-3.5	-21.5	-0.1	3.3	i
CC(C)NC(=O)Nc1ccc2c(c1)C(=O)N([C@H](C)CO)C[C@@H](C)[C@@H](CN(C)C(=O)CCC(F)(F)F)OCCCC[C@H](C)O2	1.4	7.7	-2.6	-25.5	i
COc1cccc(C(O)c2ncc(-c3ccccc3)[nH]2)c1 (centres undefined)	-1.3	2.3	1.7	5.2	i
CC(C)NC(=O)N(C)C[C@H]1OCCCC[C@@H](C)Oc2ccc(NC(=O)NC3CCCCC3)cc2C(=O)N([C@H](C)CO)C[C@H]1C	-2.2	-0.7	-3.1	-9.8	i
Cc1noc(C)c1C(=O)OC(C)C(=O)Nc1ccc([N+](=O)[O-])cc1C(F)(F)F (centres undefined)	1.3	18.9	-0.9	4.0	i
COc1ccc(NC(=O)N2CCC3(CC2)CN(C(=O)c2cccnc2)[C@H](CO)c2[nH]c4cc(OC)ccc4c23)cc1	1.8	3.6	-2.5	2.9	i
CC(=O)N1CCCCN2[C@H](CO)[C@H](c3ccc(-c4ccccc4)cc3)[C@@H]2C1	2.7	2.2	-0.2	3.4	i
COc1ccc(CN(C)C[C@H]2Oc3c(NC(=O)Nc4ccccc4)cccc3C(=O)N([C@@H](C)CO)C[C@@H]2C)cc1	-6.1	1.3	-1.6	-0.2	i
C[C@H](CO)N1C[C@H](C)[C@H](CN(C)C(=O)Nc2ccc(F)cc2)OCCCC[C@H](C)Oc2ccc(NC(=O)Nc3cccc4ccccc34)cc2C1=O	-1.1	2.5	-1.1	-3.2	i
COc1ncccc1-c1cc2nc(NCCNC(C)=O)n(C)c(=O)c2s1	-11.2	-9.1	2.5	0.2	i
Cc1ccc([C@H]2C[C@]34CNS(=O)(=O)[C@H]3C[C@H]2O4)cc1	6.1	9.6	1.4	-2.1	i
COCCN(C(=O)COC(=O)CSc1cc(C)ccc1C)c1c(N)n(Cc2ccccc2)c(=O)[nH]c1=O	4.0	2.6	5.0	-2.2	i
COc1ccccc1NC(=O)N[C@@H]1C=C[C@@H](CC(=O)N2CCC(Cc3ccccc3)CC2)O[C@H]1CO	-3.8	-34.8	6.5	-14.8	i
COc1ccc2c(CN3CCN(Cc4ccccc4)CC3)cc(=O)oc2c1	-5.3	-11.0	1.1	3.9	i
COCC#Cc1ccc([C@H]2[C@@H](CO)N3CCCCN(S(=O)(=O)c4ccccc4C)C[C@H]23)cc1	-30.8	-69.2	-0.7	-1.1	i
CCC(=O)N1CCC2(CC1)CN(C(=O)Nc1ccccc1F)[C@H](CO)c1c2c2ccc(OC)cc2n1C	-2.5	-1.0	3.7	-3.1	i
COc1ccccc1S(=O)(=O)N[C@@H]1CC[C@H](CCNC(=O)C2CC2)O[C@@H]1CO	0.3	0.7	-2.1	1.3	i
O=C(Nc1ccc2c(c1)[C@@H]1C[C@@H](CC(=O)N3CCCCC3)O[C@@H](CO)[C@@H]1O2)NC1CCCCC1	17.0&-2.4	5.2&-0.7	5.4&0.9	-2.4	i
CC(C)NC(=O)Nc1cccc2c1O[C@@H](CN(C)C(=O)NC1CCCCC1)[C@@H](C)CN([C@H](C)CO)C2=O	0.0	-1.9	-6.1	-0.8	i
C[C@@H]1CCCCO[C@H](CN(C)C(=O)C2CCCCC2)[C@@H](C)CN([C@@H](C)CO)C(=O)c2cc(NC(=O)c3ccncc3)ccc2O1	-3.3	-6.7	-0.9	2.3	i
CO[C@H]1CC[C@@H]2CCOc3ccc(C#N)cc3C(=O)N(C)C[C@@H](c3ccccc3)CC(=O)N(C)C[C@@H]1O2	-1.4	-5.6	-1.3	-0.6	i
N#C[C@H]1[C@H](c2ccc(C#CC3CC3)cc2)[C@@H](CO)N1C(=O)c1cccc(F)c1	2.2	1.9	-0.4	-0.8	i
CCNC(=O)C[C@H]1CC[C@H]2[C@@H](COC[C@@H](O)CN2C(=O)Nc2cccc(OC)c2)O1	-2.0	-8.8	-2.5	-1.7	i
C[C@H](O)C#Cc1cnc2c(c1)C(=O)N([C@@H](C)CO)C[C@@H](C)[C@@H](CN(C)Cc1cccc(F)c1)O2	-0.7	-4.0	-1.5	-2.3	i
COc1ccc(S(=O)(=O)N(C)C[C@@H]2Oc3ccc(NC(=O)CCCCCC(=O)Nc4ccccc4N)cc3CC(=O)N([C@H](C)CO)C[C@@H]2C)cc1	2.8	7.8	0.7	-0.7	i
CCCN1[C@H](C(=O)OC)[C@@H](CO)[C@@H]2Cn3c(ccc(-c4ccccc4)c3=O)[C@@H]21	-3.5	6.7	-0.3	-1.2	i

Arranged by the number under rRNA inh HTS OD600 (descending): four of the compounds above.
canonical_smiles | rRNA inh HTS | rRNA inh HTS OD600 | rRNA inh HTS RFP | MLL AF4-AF9 inh
COc1ccc(S(=O)(=O)N(C)C[C@@H]2Oc3ccc(NC(=O)CCCCCC(=O)Nc4ccccc4N)cc3CC(=O)N([C@H](C)CO)C[C@@H]2C)cc1 | 2.8 | 7.8 | 0.7 | -0.7
N#C[C@H]1[C@H](c2ccc(C#CC3CC3)cc2)[C@@H](CO)N1C(=O)c1cccc(F)c1 | 2.2 | 1.9 | -0.4 | -0.8
CC(C)NC(=O)Nc1cccc2c1O[C@@H](CN(C)C(=O)NC1CCCCC1)[C@@H](C)CN([C@H](C)CO)C2=O | 0.0 | -1.9 | -6.1 | -0.8
CCNC(=O)C[C@H]1CC[C@H]2[C@@H](COC[C@@H](O)CN2C(=O)Nc2cccc(OC)c2)O1 | -2.0 | -8.8 | -2.5 | -1.7

Next section:
SMILES	rRNA inh HTS	rRNA inh HTS OD600	rRNA inh HTS RFP	MLL AF4-AF9 inh	FGF22 binding
Cn1cnc(S(=O)(=O)N2C[C@@H](O)COC[C@@H]3O[C@@H](CC(=O)NC4CCC4)CC[C@H]32)c1	4.4	18.4	0.9	-20.2	i
O=C(C[C@H]1CC[C@@H](NS(=O)(=O)c2ccccc2)[C@@H](CO)O1)N1CCC(Cc2ccccc2)CC1	-10.1	-21.3	16.2	-1.0	i
C[C@@H]1CN([C@H](C)CO)C(=O)CCCn2nncc2CO[C@H]1CN(C)S(=O)(=O)c1ccc(Cl)cc1	6.5&-2.5	-2.3&-7.0	-1.8&1.0	-0.5&-0.6	i
C[C@H]1CN([C@@H](C)CO)C(=O)c2cc(-c3ccccc3)cnc2O[C@@H]1CN(C)C(=O)NC1CCCC1	-4.2	5.4	-1.3	0.5	i
O=C(NC1CCCC1)N1CCCCN2[C@@H](CO)[C@@H](c3ccc(-c4ccncc4)cc3)[C@@H]2C1	2.0	1.3	-2.7	-7.2	i
O=C(C[C@@H]1CC[C@H]2[C@@H](COC[C@@H](O)CN2S(=O)(=O)c2cccc(F)c2)O1)NCc1ccncn1	2.8	3.7	2.0	4.3	i
CC(C)n1c(=O)c2ccccc2n1Cc1cn(Cc2ccccc2)nn1	7.0	10.1	0.8	-1.3	i

Screening data from PubChem.

These rows are one share of the data; rates above refer to the full screens.
